Bioassay records deposited in PubChem BioAssay by several laboratories.
B2AR ag – beta2AR agonists driving receptor internalization, primary screen, cell-based, FAP fluorogen, flow cytometry. Am2.2-beta2AR cells; reference of the scale not given here. response, % (concentration not given with the values). 340,000 tested, 0.43% active. AID 504454, 2011;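 active = response above a set limit, near 3 SD of response in nonfluorescent compounds, cut at about 42% in these data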;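 also: stock transfer was 100 nL into about 11 µL; a reference agonist was the positive control; negative values mostly stem from fluorescent compounds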
Vif A3G – inhibitors of Vif binding to APOBEC3G peptide, primary screen, biochemical, TR-FRET, GST-Vif 1-94, biotin-A3G peptide, dose response retest (AID 1117319); Virion infectivity factor (Human immunodeficiency virus type 1 group M subtype B (isolate …; TR-FRET GST-Vif / biotin-A3G peptide binding; higher % means a stronger effect; test concentration not given here; strong numbers were not always called active; inhibition, %; hits with a dose series show IC50 in µM; 260,000 tested, 0.57% active;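 active = above the screen mean plus three standard deviations and confirmed in dose response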;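 also: Vif residues 1-94 fused to GST binding biotinylated APOBEC3G peptide 110-148; 0% = full assay without inhibitor and 100% = GST in place of GST-Vif; retest series ran down from 100 µM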
UCH37 DUB inh – inhibitors of human UCH37 deubiquitinase, primary screen, biochemical, Ub-AMC cleavage, fluorescence. Ubiquitin carboxyl-terminal hydrolase isozyme L5 (Homo sapiens), Q9Y5K5. purified proteasome/UCH37. inhibition, % (concentration not given with the values). 330,000 tested, 0.33% active. AID 588478, 2011;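 active = mean of two replicates above 20%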;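 also: 0% = compound-free wells with enzyme and 100% = wells lacking proteasome; stock transfer was 100 nL into about 20 µL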
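Test system – human UCH37 enzyme supplied as purified proteasome complex · Incubation – 30 min preincubation with enzyme, 25 min cleavage at room temperature · Detection – AMC fluorescence from Ub-AMC cleavage, excitation 355 nm, emission 460 nm · Benchmarks – no-proteasome wells (full inhibition) and compound-free wells (no inhibition)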
LANA-H2A inh – blockers of LANA interaction with H2A/H2B – biochemical, FP readout, HTS, primary screen; 320,000 tested, 0.6% active; inhibition, % (no concentration beside the values); Protein LANA1 (Human herpesvirus 8 type P (isolate GK18)), Q9QR71; cell-free LANA-H2A/H2B peptide, fluorescence polarization; in the data active = inhibition mostly above about 10%, no sharp cut-off; inactive = mostly below about 6.7%;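 also: stock transfer was 7.5 nL into about 10 µL; 0% = median of vehicle wells and 100% = median of positive control wells; one replicate is shown; the record names a cut of 25% in any replicate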
Target sequence (Q9QR71 whole entry, looked up): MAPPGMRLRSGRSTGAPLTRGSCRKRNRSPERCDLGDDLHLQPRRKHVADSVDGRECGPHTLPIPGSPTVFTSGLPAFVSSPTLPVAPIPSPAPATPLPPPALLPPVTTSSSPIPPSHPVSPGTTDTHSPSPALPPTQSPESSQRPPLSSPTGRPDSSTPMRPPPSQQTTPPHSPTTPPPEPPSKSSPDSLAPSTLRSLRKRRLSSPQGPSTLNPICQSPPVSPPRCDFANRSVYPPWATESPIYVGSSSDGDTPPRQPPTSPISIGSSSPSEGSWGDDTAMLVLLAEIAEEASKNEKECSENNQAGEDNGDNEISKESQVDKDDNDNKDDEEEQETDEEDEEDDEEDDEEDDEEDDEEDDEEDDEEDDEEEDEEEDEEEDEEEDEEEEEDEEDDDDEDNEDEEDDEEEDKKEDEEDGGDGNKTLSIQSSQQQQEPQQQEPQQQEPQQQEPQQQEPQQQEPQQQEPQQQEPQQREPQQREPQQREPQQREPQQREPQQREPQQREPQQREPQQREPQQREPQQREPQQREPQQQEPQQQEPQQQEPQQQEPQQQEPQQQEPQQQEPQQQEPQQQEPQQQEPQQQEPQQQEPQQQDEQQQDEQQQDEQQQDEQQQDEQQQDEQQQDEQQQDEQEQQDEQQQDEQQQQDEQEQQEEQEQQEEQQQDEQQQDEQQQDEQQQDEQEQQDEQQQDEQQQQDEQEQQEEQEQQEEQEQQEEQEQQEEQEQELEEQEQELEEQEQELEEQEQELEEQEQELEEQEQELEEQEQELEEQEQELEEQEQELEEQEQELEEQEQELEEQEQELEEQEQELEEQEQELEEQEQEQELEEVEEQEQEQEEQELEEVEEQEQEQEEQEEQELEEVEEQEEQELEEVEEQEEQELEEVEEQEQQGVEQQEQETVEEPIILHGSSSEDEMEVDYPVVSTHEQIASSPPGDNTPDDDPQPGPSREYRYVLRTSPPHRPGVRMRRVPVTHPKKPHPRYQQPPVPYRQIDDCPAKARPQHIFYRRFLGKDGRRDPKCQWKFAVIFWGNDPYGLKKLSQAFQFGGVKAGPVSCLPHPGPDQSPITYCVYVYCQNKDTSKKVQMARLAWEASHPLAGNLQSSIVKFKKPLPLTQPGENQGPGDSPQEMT
A1 inh – caspase 3/7 activation in MEF A1-2A-BIM cells, primary screen, A1 inhibitor project, cell-based, luminescence, HTS; 330,000 tested, 0.066% active; AID 2462, 2010; Caspase-Glo 3/7 luminescence, 3 h; percent of clofoctol response, vehicle zero; caspase activation, % (no concentration beside the values);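 active = over half of replicate activation scores above 10%, or exactly half above 10 with the replicate mean above 10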;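 also: wells of about 30 µL received 50 nL stock; many hits fall short of the cut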
Ecoli growth – E. coli growth inhibition, primary screen, OD600 | AID 1053175, 2014 | Escherichia coli growth, 23 h; active compounds read low | OD600 absorbance (no concentration beside the values) | 330,000 tested, 0.21% active;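 active = OD600 absorbance below the run mean of sample wells minus 3.6 SD, in any replicate, cut at about 0.56 in these data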;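 also: stock transfer was 300 nL into about 60 µL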
HNF4A DNA FP – change in binding of human HNF4A to DNA, primary screen, biochemical, fluorescence polarization, FITC-DNA; Hepatocyte nuclear factor 4-alpha (Homo sapiens), P41235; 1 h; activity change, % at 10 µM; 360,000 tested, 0.3% active; AID 1224865, 2016; in the data active = activity change above about 30%, passing the limit was not always enough;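 also: controls were the assay level and a saturating level of protein; the project sought stronger binding though the title names inhibitors; some compounds called inactive have numbers as strong as hits; positive values seem to mean higher polarization but the record does not say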
Numbers without * were called inactive; i = inactive; · = no result given.

SMILES	B2AR ag	Vif A3G	UCH37 DUB inh	LANA-H2A inh	A1 inh	Ecoli growth	HNF4A DNA FP
Cc1cc(OCc2cc(C(=O)NCC3(C)COC3)no2)cc(C)c1Cl	5.9	·	3.5	-3.9	-0.3	0.653	-0.8
C=C(C)Cn1c(C2CC(=O)N(c3ccccc3F)C2)nc2ccccc21 (stereo not given)	-10.2	3.8%	3.7	2.8	-0.2	0.775	3.2
O=C(COC(=O)c1cc(-c2ccccc2)nc2ccccc12)Nc1ccc2c(c1)OCO2	-9.9	16.1%	1.1	1.2	-0.8	0.714	2.8
CC(C)C(=O)N1N=C(c2ccc(NS(C)(=O)=O)cc2)CC1c1cccs1 (stereo not given)	-7.8	9.4%	i	1.1	-0.1	0.71	8.3
CCCCC(=O)Nc1ccc(C)c(S(=O)(=O)N2CCCCCC2)c1	37.1	-4.4%	0.8	-2.5	0.1	0.678	3.8
CCOC(=O)c1cnn(CCOC(=O)c2cccs2)c1NC(=O)c1cccs1	-4.7	17.2%	1.0	·	·	0.657	-6.3
CCOc1ccc(Br)cc1CNCc1cccnc1	3.0	·	6.8	0.3	-0.2	0.742	2.5
CCOc1ccc(NC(=O)Nc2cc(-c3ccccc3)sc2C(=O)OC)cc1	11.2	14.1%	-9.0	-3.6	0.6	0.751	-3.3
Cc1ccc2c(c1C)NC(C(=O)O)C1CC=CC21 (stereo not given)	2.5	0.59µM*	3.8	27.4*	0.4	0.729	-51.9
COc1ccc(C(C)=O)cc1CSc1nc2nc(C)cc(C)n2n1	-20.1	-3.1%	4.2	1.1	0.8	0.694	0.4
CCOC(=O)C1CCCN(C(=O)CC(c2ccccc2)c2ccccc2)C1 (stereo not given)	-0.4	-14.4%	3.5	4.1	0.0	0.709	0.1
CC(C)C(=O)N[C@@H]1c2ccccc2CC[C@@H]1O	0.5	-1.9%	-1.6	·	·	0.681	3.7
COc1ccc(-c2nc(C#N)c(NCCCN3CCOCC3)o2)cc1	-8.1	-4.0%	-262.6	-3.9	-0.3	0.718	-2.1
O=C(NCc1ccco1)c1ccc(Cl)c(S(=O)(=O)N2CCCC2)c1	6.2	4.5%	0.0	-1.9	0.3	0.71	-3.5
CCOc1ccc(C(=O)Nc2cc(S(=O)(=O)Nc3ccccc3Cl)ccc2N2CCOCC2)cc1	-0.6	6.2%	0.5	4.3	0.1	·	0.1
Cc1ccc(NC(=O)C2CCCN(S(=O)(=O)c3cccnc3)C2)c(C)c1 (stereo not given)	-3.4	·	0.2	-3.8	-0.9	0.656	1.3
Cc1cc(/C=N/NC(=O)c2ccncc2)c(C)n1-c1ccccc1	5.0	18.3%	·	-0.8	1.5	·	-0.5
CCOc1cc(C(=S)N2CCCCC2)ccc1OCC(=O)NCc1ccccc1	-11.4	3.3%	1.5	1.5	-0.3	0.696	0.6
COc1ccccc1CNCC(=O)N1CC(=O)Nc2ccccc21	1.2	-11.6%	2.0	0.0	0.3	0.69	1.4
CCN(C(=O)CSc1nnc(C)c(=O)[nH]1)c1cccc2ccccc12	1.9	·	5.5	0.3	0.5	0.684	-1.8
C/C(=N/NC(=O)Cc1cccn1C)c1ccccc1	0.3	20.6%	·	0.3	0.3	·	0.2
COc1ccc(S(=O)(=O)NCC(=O)NCCc2ccc(OC)c(OC)c2)cc1	-1.4	·	3.8	8.6	0.1	0.638	1.6
CC(SC1=NCCS1)C(=O)Nc1nnc(-c2ccc(Br)cc2)s1 (stereo not given)	9.4	-16.5%	2.1	4.4	1.0	0.795	4.2
Cn1c(C(=O)N2CCN(C(=O)c3ccco3)CC2)cc2c(=O)n(C)c3ccccc3c21	-0.5	-0.7%	1.4	3.3	1.1	0.76	-0.5
CC(=O)Nc1ccc(S(=O)(=O)N2CCC(NC(=O)c3ccccc3)CC2)cc1	-4.0	·	6.3	-3.7	0.9	0.709	1.6
CN(C)c1nc(Cl)nc(N(C#N)CCOc2ccccc2)n1	13.6	-3.8%	5.5	-0.8	0.8	0.657	-4.6
O=C(C1CCCC1)N1CCCC(Nc2ccccc2)C1 (stereo not given)	8.0	-2.6%	3.4	3.4	-0.3	0.673	-1.5
CCCCC1=CC2=C(c3ccco3)C(=O)C(C)(OC(=O)c3ccc(OC)cc3)C(=O)C2=CN1CC1CC1 (stereo not given)	11.1	·	4.9	0.5	1.3	0.752	2.1
CCCCN(C(=O)c1cccc(C)c1)c1c(N)n(CCC)c(=O)[nH]c1=O	0.5	·	0.4	-0.5	0.2	0.708	5.1
COc1ccc(CCNC(=O)COC(=O)c2ccc([N+](=O)[O-])o2)cc1	3.0	·	18.2	-2.4	0.1	0.617	-3.2
Cc1ccc(CSc2nnc(C)c(=O)[nH]2)cc1	-2.8	1.9%	4.7	0.8	0.0	0.694	-3.3
CCN(CCCn1c(SCC#N)nc2ccccc2c1=O)c1ccccc1	-15.1	9.8%	2.8	7.7	-0.1	0.678	0.4
COC(=O)c1ccc(Nc2nc(C)nc3c2nnn3Cc2ccccc2)cc1	2.4	·	-121.2	2.3	0.5	0.722	-0.1
Nc1ncnc2nc(SCCN3CCCCC3)[nH]c12	-4.7	-6.3%	2.2	-1.3	-0.3	0.696	-3.5
C=C(C)CNC(=S)NNC(=O)c1cc(C)oc1C	1.2	-6.2%	4.6	-1.7	-0.9	0.689	-0.5
COc1ccc(OC)c(S(=O)(=O)NC(N)=NCCc2ccccc2OC)c1	·	18.4%	0.9	-2.1	0.9	0.716	·
Cc1ccc(NC(=O)CN2CCc3ccccc3C2)cc1C	5.2	·	3.0	1.5	1.4	0.692	0.4
CCC(Cc1ccccc1)NS(=O)(=O)c1ccc2c(c1)NC(=O)CO2 (stereo not given)	-0.5	·	1.8	·	·	0.708	-1.1
COc1ccc(OCC(=O)Nc2ccccc2C(=O)N2CCOCC2)cc1	-3.0	-4.7%	0.5	0.5	0.3	0.725	1.9
Cc1ccc(-c2nnn(CC(=O)N3c4ccccc4CCc4ccccc43)n2)cc1	-4.5	13.3%	4.7	-5.4	-0.7	0.688	-2.0

Some entries already given, showing only HNF4A DNA FP:
| Molecule | HNF4A DNA FP |
| --- | --- |
| Cc1ccc(NC(=O)CN2CCc3ccccc3C2)cc1C | 0.4 |
| CCC(Cc1ccccc1)NS(=O)(=O)c1ccc2c(c1)NC(=O)CO2 (stereo not given) | -1.1 |
| COc1ccc(OCC(=O)Nc2ccccc2C(=O)N2CCOCC2)cc1 | 1.9 |

Other results follow:
SMILES	B2AR ag	Vif A3G	UCH37 DUB inh	LANA-H2A inh	A1 inh	Ecoli growth	HNF4A DNA FP
Cc1noc(C(=O)Nc2ccccc2C(F)(F)F)c1Cl	-3.5	8.0%	3.6	-5.3	0.0	0.75	-5.1
COCCCC1CCN(C(=O)C2CCC(=O)N(C3CCCCCC3)C2)CC1 (stereo not given)	2.1	·	5.3	3.3	-0.8	0.714	-4.0
CC(C)(Oc1ccc(Cl)cc1)C(=O)NCC(c1cccs1)N1CCOCC1 (stereo not given)	1.6	1.1%	1.9	1.7	-1.5	0.692	0.6
COC(=O)CNC(=O)Cc1c(C)n(C(=O)c2ccc(Cl)cc2)c2ccc(OC)cc12	1.7	·	2.0	-15.2	0.3	0.665	1.0
Clc1cccc(Cl)c1Cn1ccc(C2CC2)n1	-2.4	-3.2%	4.1	-0.3	-0.8	0.71	-0.3
CC(=O)Nc1ccc(NC(=O)COc2ccc(S(=O)(=O)NC(C)c3ccccc3)cc2)cc1 (stereo not given)	12.0	5.4%	3.0	-0.9	0.9	0.684	1.7
CN1C(=O)c2ccccc2Sc2ccc(NC(=O)N3CCOCC3)cc21	-2.3	-0.2%	3.3	1.1	1.1	0.715	0.3
COc1ccc(NC(=O)COC(=O)c2ccc(OC)c(S(=O)(=O)N3CCCC3)c2)cc1OC	6.2	·	-2.2	3.9	0.3	0.701	-1.3
Cc1cc(=O)oc2c1c(C)nn2-c1ccc(Cl)cc1	1.9	29.7%	5.2	-3.4	3.5	0.699	0.6
CCOC(=O)CSc1nc(-c2cccs2)nc2c1c(=O)n(C)c(=O)n2C	-8.0	·	-4.3	4.9	0.2	0.73	-1.2
COc1ccc(N(CC(=O)N2CCCC2)S(=O)(=O)c2ccc(NC(C)=O)cc2)cc1	-13.2	-4.5%	1.1	2.1	-0.1	0.628	4.2
CCC(Oc1ccccc1F)C(=O)NCCCn1ccnc1 (stereo not given)	4.2	·	0.9	-1.4	-0.8	0.697	-1.7
CCS(=O)(=O)N1CCC(C(=O)Oc2ccc(C(=O)OC)cc2)CC1	8.3	·	6.6	-2.3	-0.1	0.682	2.2
Cc1c2ccccc2nc2ccccc12	-3.2	·	-344.8	-0.6	0.4	0.614	-2.0
CC(=O)N1C(=O)N(C(C)=O)C2C1N(C(C)=O)C(=O)N2C(C)=O (stereo not given)	3.8	-2.9%	4.8	4.3	0.6	0.706	0.5
CCOC(=O)c1ccc(NC(=S)N(CCCN2CCN(CC)CC2)Cc2ccco2)cc1	-8.5	·	1.6	4.1	0.2	0.724	0.8
Cc1ccc(OCCCCN2CCCC(C)C2)c([N+](=O)[O-])c1 (stereo not given)	3.6	14.9%	7.3	2.4	-0.3	0.717	3.8
CCOc1ccccc1CN1CCNC(=O)C1CC(=O)NCCC1=CCCCC1 (stereo not given)	-5.7	·	1.3	-18.5	-0.5	0.714	2.4
CCC1(C)SC(NC(C)=O)=NN1C(C)=O (stereo not given)	0.7	·	-0.2	3.2	0.5	0.665	-1.8
CC(C)COc1ccc(C(=O)N/C(=C\c2cccc([N+](=O)[O-])c2)C(=O)OC(C)C)cc1	3.2	-3.6%	6.4	4.1	-0.5	0.829	-3.0
Fc1ccccc1CCNc1nnnn1-c1ccccc1	7.8	28.1%	3.2	-3.4	0.3	0.693	1.4
CC(=O)C1C(c2ccccc2)c2c(n[nH]c2C)CC1(C)O (stereo not given)	-0.5	6.7%	4.5	-1.3	-0.2	0.705	5.3
CC(=O)Nc1ccc(SCC(=O)N(C)C2CCS(=O)(=O)C2)cc1 (stereo not given)	3.1	·	1.5	15.3	0.5	0.677	3.4
O=C(CSc1cccc2cccnc12)Nc1ccc(S(=O)(=O)N2CCOCC2)cc1	14.0	-0.1%	-40.0	8.0	-1.4	0.703	0.8
CC1CCN(C(=O)CCNS(=O)(=O)c2ccc3c(c2)c(=O)n(C)c(=O)n3C)CC1	-12.3	17.3%	1.1	0.8	-0.9	0.669	-3.8
CC(Sc1nc2ccccc2c(=O)n1CC1CCCO1)C(=O)NC(C)c1ccccc1 (stereo not given)	5.4	2.5%	2.3	1.6	-0.4	0.701	0.4
Cc1[nH]n(-c2ccc([N+](=O)[O-])cc2)c(=O)c1C=NCCc1ccc(S(N)(=O)=O)cc1	5.5	-3.6%	6.5	1.3	0.9	0.679	2.9
N/C(=N\OC(=O)C1CCCCC1)c1cccc(Br)c1	0.7	-1.3%	3.5	2.3	-0.3	0.718	-2.7
CC(NC(=O)c1cc(=O)[nH]c2ccc(Br)cc12)c1ccccc1 (stereo not given)	·	-54.8%	1.2	1.0	0.8	0.68	·
COc1ccccc1OCC(=O)NCC(C)NC(=O)COc1ccccc1OC (stereo not given)	-20.4	5.3%	1.0	1.2	-0.1	0.68	0.9
Cc1ccc2nc(-c3ccccn3)c(Nc3ccccc3C)n2c1	8.8	·	-3.3	-2.8	0.7	0.502*	38.6*
